# LANA-H2A inh = blockers of LANA interaction with H2A/H2B – biochemical, FP readout, HTS, primary screen | Protein LANA1 (Human herpesvirus 8 type P (isolate GK18)), Q9QR71 | cell-free LANA-H2A/H2B peptide, fluorescence polarization | inhibition, % (test concentration not listed) | hit rate 0.6% among 320,000 | AID 2629, 2010; in the data active = inhibition mostly above about 10%, no sharp cut-off; inactive = mostly below about 6.7%;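 note: stock transfer was 7.5 nL into about 10 µL; 0% = median of vehicle wells and 100% = median of positive control wells; one replicate is shown; the record names a cut of 25% in any replicate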
# ALR inh = inhibitors of human ALR sulfhydryl oxidase, primary screen, biochemical, H2O2 detection, HRP-luminol luminescence, single point; FAD-linked sulfhydryl oxidase ALR (Homo sapiens), P55789; purified ALR, DTT oxidation; inhibition, % (no concentration beside the values); hit rate 3.8% among 290,000;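 active = mean and each replicate at 75% or more; inconclusive = only one of the two met; inactive = neither met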;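 note: stock transfer was 7.5 nL into about 7.5 µL; 0% = neutral wells and 100% = wells with inactivated enzyme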
# Target sequence (P55789 whole entry, looked up): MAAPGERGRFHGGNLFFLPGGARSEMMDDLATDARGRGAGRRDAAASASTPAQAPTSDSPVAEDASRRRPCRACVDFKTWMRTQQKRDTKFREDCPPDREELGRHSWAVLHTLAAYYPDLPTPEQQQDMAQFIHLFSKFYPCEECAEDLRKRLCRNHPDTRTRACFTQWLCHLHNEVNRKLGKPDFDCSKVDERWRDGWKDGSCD
# RanGTP-Impb inh = inhibitors of RanGTP-importin-beta interaction, primary screen, biochemical, FRET, CFP-Ran, YFP-importin-beta, homogeneous; Ran GTPase (GTP-bound) - importin-beta complex; cell-free CFP-Ran/YFP-importin-beta FRET ratio; inhibition, % (no concentration beside the values); hit rate 1.1% among 300,000; AID 2216, 2009;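 active = most replicates above 15%; inconclusive = exactly half above 15%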;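 note: 0% = DMSO wells and 100% = Ran loaded with GDP instead of GTP; wells of about 40 µL received 100 nL stock; the first replicate is given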
# HNF4A DNA FP = change in binding of human HNF4A to DNA, primary screen, biochemical, fluorescence polarization, FITC-DNA; hit rate 0.3% among 360,000; activity change, % at 10 µM; Hepatocyte nuclear factor 4-alpha (Homo sapiens), P41235; 1 h; in the data active = activity change above about 30%, passing the limit was not always enough;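 note: controls were the assay level and a saturating level of protein; the project sought stronger binding though the title names inhibitors; some compounds called inactive have numbers as strong as hits; positive values seem to mean higher polarization but the record does not say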
# Target sequence (P41235 whole entry, looked up): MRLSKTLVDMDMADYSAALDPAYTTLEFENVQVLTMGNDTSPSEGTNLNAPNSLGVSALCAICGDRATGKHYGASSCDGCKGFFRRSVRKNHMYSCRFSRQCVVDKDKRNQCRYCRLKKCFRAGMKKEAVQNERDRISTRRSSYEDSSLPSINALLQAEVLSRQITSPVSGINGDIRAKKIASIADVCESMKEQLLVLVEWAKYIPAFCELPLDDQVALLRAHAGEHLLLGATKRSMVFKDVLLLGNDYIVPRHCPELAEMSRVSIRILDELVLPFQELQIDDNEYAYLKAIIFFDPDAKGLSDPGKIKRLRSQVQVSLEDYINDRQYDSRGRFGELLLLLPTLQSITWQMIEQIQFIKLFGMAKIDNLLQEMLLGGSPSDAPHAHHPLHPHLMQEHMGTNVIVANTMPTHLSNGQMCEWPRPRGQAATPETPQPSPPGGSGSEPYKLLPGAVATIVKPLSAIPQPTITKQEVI
# Beta2AR agonist = beta2AR agonists driving receptor internalization, primary screen, cell-based, FAP fluorogen, flow cytometry; response, % (test concentration not listed); hit rate 0.43% among 340,000; Am2.2-beta2AR cells; reference of the scale not given here; Beta-2 adrenergic receptor (Homo sapiens), P07550;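 active = response above a set limit, near 3 SD of response in nonfluorescent compounds, cut at about 42% in these data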;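 note: stock transfer was 100 nL into about 11 µL; a reference agonist was the positive control; negative values mostly stem from fluorescent compounds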
# Target sequence (P07550 whole entry, looked up): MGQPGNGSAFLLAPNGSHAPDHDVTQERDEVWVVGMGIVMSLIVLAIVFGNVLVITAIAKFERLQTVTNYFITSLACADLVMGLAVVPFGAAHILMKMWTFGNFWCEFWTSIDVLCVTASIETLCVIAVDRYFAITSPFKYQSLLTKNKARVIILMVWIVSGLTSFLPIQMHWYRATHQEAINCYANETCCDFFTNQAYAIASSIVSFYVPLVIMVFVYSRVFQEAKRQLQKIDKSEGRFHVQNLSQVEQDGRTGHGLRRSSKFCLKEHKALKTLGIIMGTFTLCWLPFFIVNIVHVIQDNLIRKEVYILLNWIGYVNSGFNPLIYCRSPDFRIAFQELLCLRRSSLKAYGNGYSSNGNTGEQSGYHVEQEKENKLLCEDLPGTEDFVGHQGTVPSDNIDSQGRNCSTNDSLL
# Calb FLC = C. albicans growth inhibition with fluconazole, primary screen, CaCi-2 strain, Alamar Blue fluorescence. growth inhibition, % (no concentration beside the values). AID 1979, 2009. hit rate 0.57% among 300,000. C. albicans CaCi-2 (fluconazole-resistant clinical isolate) + fluconazole, 48 h;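 active = most replicates above 75%; inconclusive = exactly half above 75%; inactive = most below 75%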;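 note: all wells also contain fluconazole at 8 µg/ml as a sub-toxic cotreatment; 0% = median of DMSO wells and 100% = median of geldanamycin control wells; wells of about 8 µL received 7.5 nL stock; the first replicate is given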
# Vif TR-FRET = inhibitors of Vif binding to APOBEC3G peptide, primary screen, biochemical, TR-FRET, GST-Vif 1-94, biotin-A3G peptide, dose response retest (AID 1117319); TR-FRET GST-Vif / biotin-A3G peptide binding; higher % means a stronger effect; test concentration not given here; strong numbers were not always called active; inhibition, %, or IC50 in µM where a hit was titrated; hit rate 0.57% among 260,000;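 active = above the screen mean plus three standard deviations and confirmed in dose response; inconclusive = results disagree or hit not tested in dose response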;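 note: Vif residues 1-94 fused to GST binding biotinylated APOBEC3G peptide 110-148; 0% = full assay without inhibitor and 100% = GST in place of GST-Vif; retest series ran down from 100 µM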
# An asterisk follows results filed as active; ? = inconclusive; nt = no result given; & = joins results of further samples. Hits appear at their usual frequency. About 6.3% of those tested had a hit in this group.
SMILES,LANA-H2A inh,ALR inh,RanGTP-Impb inh,HNF4A DNA FP,Beta2AR agonist,Calb FLC,Vif TR-FRET
COc1ccc(C(=O)NNC(=O)C(=O)Nc2ccc(C)c(Cl)c2)cc1,2.5,-1,0.4,-3.9,0,2,6%
COc1cc(NC(=O)C(C)Oc2ccccc2)c(OC)cc1NC(=O)c1ccccc1 (centres undefined),3.3,-16,3.2,6.6,7,5,4%
Cc1ccc(CNC(=O)C2CCN(C(=O)Nc3ccc(C)cc3)CC2)cc1,nt,nt,0.2,-0.6,-7,-4,5%
CC(C)(C)C(=O)/C(=C/c1ccncc1)n1cncn1,-1.9,6,3.1,-4.2,5,42,-1%
Nc1ncnc(Nc2cccc(C(F)(F)F)c2)n1,9.0,1,7.2,-1.1,-8,34,-4%
COc1ccc2c(CC(=O)OCC(=O)Nc3cccc(S(N)(=O)=O)c3)coc2c1,-5.0,-2,3.8,-2.9,-9,-3,3%
O=C(c1ccccc1)C1CCN(C(=O)C2CCC(=O)N(Cc3cccc(F)c3)C2)CC1 (centres undefined),nt,nt,6.9,-0.8,-6,12,nt
CCOC(=O)N1CCN(c2ccc([N+](=O)[O-])cc2F)CC1C (centres undefined),-3.0,1,6.3,2.0,3,-28,nt
COc1ccc(Nc2cc(NCCCO)c([N+](=O)[O-])c3nonc23)cc1,1.2,0,6.0,-0.6,-10,3,1%
COc1ccc(C(=O)Cn2c(=N)n(C)c3ccccc32)cc1,-4.5,-8,-2.4,-0.4,-4,-8,>100µM*
CC(C)(C)C1CCC(=NNc2ncc(C(F)(F)F)cc2Cl)CC1 (centres undefined),-8.3,-2,-0.9,2.1,2,28,7%
CC(C)(C)OC(=O)C[C@H]1C/C=C\C[C@@H](CC(=O)N[C@@H](CO)Cc2ccccc2)C(=O)N2CCC[C@@H]2COC1=O,1.3,1,nt,-1.7,-6,nt,nt
CCCN(CC(=O)Nc1ccccc1OC)C(=O)CSc1nc(C)cc(C)n1,0.4,-28,-3.8,-0.5,-6,8,-13%
Cc1cc(NC(=O)C2CCN(S(=O)(=O)c3c(C)noc3C)CC2)ccc1Br,6.5,-1,1.6,-2.2,0,-8,nt
COc1ccc(/C=N\Nc2ccc([N+](=O)[O-])cc2[N+](=O)[O-])c(C(=O)O)c1OC,-2.9,98*,5.0,-2.1,-34,-17,-4%
COc1cccc(OC)c1C(=O)NC(=S)N1CCOCC1,-1.5,0,-0.9,-0.5,1,-1,8%
Cc1snc(S(=O)(=O)Cc2ccccc2Cl)c1C#N,-2.1,0,2.3,-2.8,-5,-3,69%
COC(=O)c1cc(S(=O)(=O)NCc2ccccc2Cl)c[nH]1,0.3,-7,0.0,3.1,2,4,nt
COc1ccc(-c2noc(N3CCC(C(=O)Nc4ccccc4Cl)CC3)n2)cc1,-1.2,0,-1.6,0.2,-37,-2,nt
O=C(COc1ccc(/C=N/NC(=O)c2ccccc2O)cc1)Nc1ccccc1,-0.4,nt,4.4,3.6,8,-24,-1%
O=S(=O)(c1ccc(S(=O)(=O)N2CCCN(Cc3ccccc3)C2)cc1)N1CCCCCC1,3.8,-1,?,1.2,3,-9,-10%&-3%
CN(CC(=O)Nc1ccc(Br)cc1)Cc1ccccc1,-0.7,-11,-4.4,-1.3,-6,-2,12%
CCn1c(SCc2ccc(C)cc2)nnc1C1CCN(S(=O)(=O)c2ccc(OC)cc2)CC1,-4.6,-8,0.9,8.0,-2,7,-6%
CC1CCCCC1N(C)C1CCN(C(=O)CNC(=O)/C=C/c2cccc(Cl)c2)CC1 (centres undefined),-1.2,-6,6.0,6.9,2,3,nt
CC(C)(C)NC(=O)N1CCN(c2ncccc2C(F)(F)F)CC1,-0.4,-6,?,-5.7,5,4,-9%
Cc1ccc(S(=O)(=O)CCC(=O)NC2CCCCC2)cc1,4.5,nt,nt,2.4,-2,nt,3%
CC(C)C[C@H](NC(=O)c1[nH]cnc1C(=O)Nc1ccc(CNC(=O)OC(C)(C)C)cc1)C(=O)OCc1ccccc1,-0.2,-17,-3.5,-7.2,10,1,-6%
CCOC(=O)N1CCC(NC(=O)c2ccc3c(c2)sc2nc(-c4ccc(OC)cc4)cn23)CC1,1.4,0,-3.0,nt,nt,-3,-11%
O=C(Nc1nnc(-c2cccnc2)o1)c1cccc(Cl)c1,1.2,nt,-4.3,-0.1,-4,1,-9%
COc1ccc(CCN(Cc2ccccn2)C(=S)Nc2cccc(SC)c2)cc1OC,0.2,-7,-0.9,-0.9,-9,9,nt
Cc1c(C(=O)O)sc(S(=O)(=O)N2CCN(C(=O)Cc3ccccc3Cl)CC2)c1C(=O)O,5.4,-3,nt,0.4,-7,nt,-18%
CC(=O)Nc1ccc(Br)c(Cl)c1,4.3,2,-0.3,1.8,1,-4,-3%
CN(C)c1ccc(-n2cc3c(=O)n(C)c(=O)n(C)c3c2)cc1,5.3,99*,1.2,0.1,-15,-1,16%
Cc1ccccc1NC(=O)C(C)OC(=O)c1ccccc1C(=O)N(C)c1ccccc1 (centres undefined),2.0,-2,-1.0,0.7,2,-5,4%
Cc1ccc[n+](CC(=O)c2ccc(NC(=O)c3ccccc3)cc2)c1C,-0.9,8,0.2,-1.7,-4,-14,nt
COc1ccc(NC(=S)/N=C(\N)Nc2nc(C)c3ccccc3n2)cc1,3.8,-8,-0.1,1.5,1,5,-13%
O=C1c2ccccc2C(=O)C12OC2c1ccc(Cl)cc1Cl (centres undefined),-4.9,nt,nt,-1.6,3,nt,1%
O=[N+]([O-])c1ccccc1N(CC1CO1)S(=O)(=O)c1ccccc1 (centres undefined),-2.1,-4,1.1,1.2,4,-2,nt
CCC(CC)C(=O)c1c[nH]c(C(=O)N2CCN(c3ccccc3F)CC2)c1,-366,1,2.5,0.3,-8,24,1%
CC(=O)N1CCN=C1SCc1cccc(C(F)(F)F)c1,-4.3,99*,-0.4,-0.1,-11,-1,-4%
Cc1ccc(-c2csc(NS(=O)(=O)c3cccc(F)c3)n2)o1,1.0,52,nt,-2.8,1,nt,24%
CCOC(=O)N1CCN(C(=O)/C=C/c2ccc([N+](=O)[O-])cc2)CC1,-6.8,nt,-2.4,2.3,-4,27,nt
O=C1CC(c2ccc(F)cc2)Cc2nc(NCC3CCCO3)ncc21 (centres undefined),-3.5,-3,0.5,3.7,-2,18,1%
Cc1ccn2c(c1)nc(=S)n2C(=O)c1ccco1,-4.2,nt,4.0,nt,nt,?,23%
COCCNC(=O)C1=C(N)C(C(=O)Nc2ccc(C)c(S(=O)(=O)N3CCCCC3)c2)SC1=Nc1ccc(C)cc1C (centres undefined),-2.1,6,0.5,-0.3,9,1,-2%
Cc1ccc(NC(=O)C2CCCN2C(=O)OCc2ccccc2)cc1F (centres undefined),4.6,-5,7.7,0.6,4,-26,nt
Cc1ccsc1C(=O)NNC(=S)NC1CCCCC1,-1.9,61,-1.3,5.0,4,39,nt
CCCCN1C(=N)N([C@@H](C)CN2CCC[C@H]2CN2C(N)=NC[C@H]2C(C)C)C[C@H]1[C@H](C)CC,nt,4,nt,2.2,-12,nt,2%
Cc1ccc(S(=O)(=O)N2CCC(NC(=O)OC(C)C)CC2)cc1,0.9,0,2.6,2.5,3,-10,5%
O=C(Nc1cccc(NC(=O)c2ccccc2[N+](=O)[O-])c1)c1ccccc1Cl,-6.7,0,2.0,0.3,8,-6,nt
COc1ccc(NC(=O)CSc2nncn2C)c([N+](=O)[O-])c1,-3.7,-10,-0.6,4.1,-1,-5,0%
CCc1c(C(C)O)oc2ccc3c(C)cc(=O)oc3c12 (centres undefined),nt,nt,6.3,nt,nt,-19,5%
CCOC(=O)C1=C(O)C(=O)N(c2ccc(S(N)(=O)=O)cc2)C1c1ccc(OC)cc1OC (centres undefined),2.5,5,?,-0.4,-6,-4,4%
COc1cccc(C2CCCCN2Cc2nc(-c3ccc(C)o3)oc2C)c1 (centres undefined),0.9,-11,0.4,9.1,9,1,-5%
O=C(NNc1ncc(C(F)(F)F)cc1Cl)c1ccc(Cl)c(Cl)c1,-2.2,-42,1.9,7.1,-1,-13,-1%
Cc1cc(C)cc(-n2c(=O)c3ccccc3n(CC(=O)NCC3CCCO3)c2=O)c1 (centres undefined),-5.7,-11,3.2,-0.6,14,-1,nt
CCO/C=C1/C(=O)N(c2ccc(OC)cc2)C(=O)c2ccccc21,-0.2,3,0.6,4.0,-2,12,9%
O=C(Nc1cccnc1Cl)c1ccc(Cl)c([N+](=O)[O-])c1,0.3,-16,1.5,-1.2,-6,1,nt
C=C(C)C(=O)Nc1cccnc1Oc1ccc(F)cc1,0.7,-4,0.5,-0.1,1,1,-4%
Cc1ccc(CN2CCc3c(OCC(=O)Nc4cccc(C)c4C)cccc3C2=O)cc1,-6.2,nt,1.0,nt,nt,2,2%

# (continued)
SMILES,LANA-H2A inh,ALR inh,RanGTP-Impb inh,HNF4A DNA FP,Beta2AR agonist,Calb FLC,Vif TR-FRET
O=C(NCc1ccccc1)C1CCCN(C(=O)Nc2ccccc2)C1 (centres undefined),-3.2,-2,nt,-2.6,0,-4,?
Clc1ccc(OCCSc2ncccn2)c(Br)c1,2.0,-4,-4.8,0.2,-16,3,-2%
COc1ccc(CNC(=O)CCn2ccc3cc(S(=O)(=O)N4CCCC4)ccc32)cc1,5.1,-3,-4.3,-4.2,4,-2,nt
Cc1c(CN(C)C(=O)CSc2nc(-c3ccco3)cc(C(F)(F)F)n2)cnn1C,9.4,-2,2.5,1.0,-10,7,6%
COc1ccc(NC2CCCN(C(=O)CSc3ccncc3)C2)cc1 (centres undefined),-1.2,99*,?,-1.0,-1,0,nt
CC(=O)c1cccc(S(=O)(=O)NCC(c2ccco2)N2CCCCC2)c1 (centres undefined),1.3,-4,3.1,2.7,4,-9,17%
O=C(Nc1cccc(S(=O)(=O)N2CCOCC2)c1)C1=NN(c2ccccc2)C(=O)CC1,-0.1,-1,2.8,-2.9,7,1,6%
N#Cc1c(-c2ccco2)cc(-c2cccnc2)nc1N,1.8,-31,4.8,-8.1,10,35,?
Cc1nc(SCC(=O)N2CC(=O)Nc3ccccc32)c2c(C)c(C)sc2n1,-3.7,0,3.5,-0.3,-7,-4,-4%
CCCc1nc2c(sc3nc4c(cc32)COC(C)(C)C4)c(=O)n1CCN(C)C,-0.2,13,1.7,2.2,-2,-20,4%
O=C(CCC1N=C2c3ccccc3N=C(SCc3ccc(F)cc3)N2C1=O)NCc1ccco1 (centres undefined),-7.5,-24,?,1.6,3,-4,7%
O=C(Nc1cccc2ncccc12)c1ccc(-c2ccc(Br)cc2)o1,-4.8,-5,1.4,5.4,-2,3,0%
CCCCn1c(N)c(N(CC)C(=O)COc2ccc(C#N)cc2)c(=O)[nH]c1=O,2.4,-7,nt,-1.6,4,nt,-8%
COc1ccc(/C=N/NC(=S)Nc2cc(C(F)(F)F)ccc2Cl)cc1,2.4,-2,5.0,1.9,-1,22,16%
NC(=S)N/N=C/c1ccc(Br)o1,-1.7,11,2.7,2.7,7,18,12%
Cc1ccc(NC(=O)CSc2nnc(C)n2CC2CCCO2)cc1 (centres undefined),-6.1,0,0.0,-2.1,6,-5,-8%

# Given with values under each structure: entries from further up.
# Each structure is followed by: LANA-H2A inh, ALR inh, RanGTP-Impb inh, HNF4A DNA FP, Beta2AR agonist, Calb FLC, Vif TR-FRET
- Nc1ncnc(Nc2cccc(C(F)(F)F)c2)n1
 : 9.0, 1, 7.2, -1.1, -8, 34, -4%
- COc1ccc2c(CC(=O)OCC(=O)Nc3cccc(S(N)(=O)=O)c3)coc2c1
 : -5.0, -2, 3.8, -2.9, -9, -3, 3%
